Screens from PubChem BioAssay.
RE007 growth inh: less growth of the S. pombe RE007 Vpr strain; S. pombe RE007 Vpr strain, BacTiter-Glo ATP luminescence, 24 h; control for the full effect not named in the record; Potency, µM (doses to about 92.2 µM), for inactives: top-dose activity change, negative = less growth; 360,000 tested, 0.21% active; AID 651644; active = well fitted falling curve with a large enough effect; inconclusive = small, poorly fitted or top-dose-only effect; inactive = no such curve, though single readings can be large or run the other way;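 further: on the % scale 0 is the no-effect control and ±100 the full control effect; nearly all actives have a fitted effect of over 50% in size; the assay follows cell death caused by Vpr and the record does not say whether a fall means rescue or toxicity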
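Fission yeast RE007 carrying one integrated HIV-1 vpr copy, seeded at OD 0.01 in PMG+AL medium with 23 nL pinned compound. Grown 24 h at 30 degrees; viability read by BacTiter-Glo luminescence after 5 min.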
Lassa entry inh: Lassa virus entry inhibition. Lassa virus pseudotype entry inhibition, cell reporter; control for the full effect not named in the record. Potency, µM (series often up to 37.9 µM), for inactives: top-dose activity change, negative = inhibition, most hits filed as inhibitors. 300,000 tested, 1.2% active; active means well fitted inhibition curve with a large enough effect; inconclusive means small, poorly fitted or top-dose-only effect, or effect the other way; inactive means flat fitted curve, though single readings scatter; tested in HEK293 cells; further: on the % scale 0 is the no-effect control and ±100 the full control effect; nearly all actives have a fitted effect of over 50% in size; luciferase read-out
NS1 function inh: blocks influenza NS1 protein function | AID 2326 | Potency, µM (doses to about 46.1 µM), without a hit: top-dose activity, positive = more growth | 270,000 tested, 0.4% active | S. cerevisiae slowed by influenza A NS1, growth recovery by OD600; further: actives are rising curves; nearly all actives have a fitted effect of over 50% in size
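Recovery from NS1-induced slow growth read by OD600 in budding yeast switched to galactose assay medium (pH 6.0, -URA) at 1:100 dilution. Compound 23 nl per well; the matching strain lacking NS1 serves as control.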
2A StopGo: lowers the luciferase signal of an FMDV 2A StopGo reporter; human cells with a luciferase reporter of 2A StopGo recoding; control for the full effect not named in the record; Potency, µM (series often up to 57.9 µM), for inactives: at the top dose signal change, negative = less light; 410,000 tested, 1.2% active; active = well fitted falling curve with a large enough effect; inconclusive = small, poorly fitted or top-dose-only effect; inactive = no such curve, though single readings can be large or run the other way; tested in HEK293T cells; further: on the % scale 0 is the no-effect control and ±100 the full control effect; nearly all actives have a fitted effect of over 45% in size; luciferase light after 4 h
Cruzain Triton: cruzain (T. cruzi) inhibition with detergent; P25779; purified cruzain, Z-FR-AMC fluorescence, 0.01% Triton; 200,000 tested, 0.43% active; AID 1478; Potency, µM, without a hit: max response, negative = inhibition, most hits filed as inhibitors; active means well fitted curve in the direction sought with a large enough effect; inconclusive means small, poorly fitted or top-dose-only effect, or another doubt; inactive means no such curve, though single readings can be large; an effect the other way counts as inactive or inconclusive;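 further: plate controls were neutral wells for no effect and buffer without enzyme for full effect; nearly all actives have a fitted effect of over 40% in size; top concentration of the series not given in the record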
Target sequence (P25779 123-467 limits assumed): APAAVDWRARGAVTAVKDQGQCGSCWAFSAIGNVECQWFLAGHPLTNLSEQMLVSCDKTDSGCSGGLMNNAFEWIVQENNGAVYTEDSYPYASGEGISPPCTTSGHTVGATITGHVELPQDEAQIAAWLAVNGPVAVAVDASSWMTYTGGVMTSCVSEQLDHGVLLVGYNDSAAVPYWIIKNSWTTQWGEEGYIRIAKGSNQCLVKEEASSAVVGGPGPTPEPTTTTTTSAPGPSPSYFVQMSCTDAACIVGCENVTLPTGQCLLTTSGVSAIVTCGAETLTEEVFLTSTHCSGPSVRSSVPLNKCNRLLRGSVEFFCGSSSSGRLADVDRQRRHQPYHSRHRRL
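In this qHTS format, compounds are incubated with 1.5 nM cruzain for 15 min at room temperature before 2 uM Z-FR-AMC is added. Release of AMC is followed at 360/450 nm, and progress is taken as the 60 s fluorescence difference.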
MARV entry inh: blocks Marburg virus binding to or entry into cells; Marburg virus pseudotyped entry inhibition, cell reporter; control for the full effect not named in the record; about a third of the inactives were read at about 46 µM; AID 540276; Potency, µM (series often up to 37.8 µM), for the others: at the highest dose activity change, negative = inhibition, actives largely listed as inhibitors; 300,000 tested, 1.8% active; active = well fitted inhibition curve with a large enough effect; inconclusive = small, poorly fitted or top-dose-only effect, or effect the other way; inactive = flat fitted curve, though single readings scatter; tested in HEK293 cells; about a fifth of its hits are not listed in these tables; further: on the % scale 0 is the no-effect control and ±100 the full control effect; luciferase read-out
SARS PLP yeast: SARS-CoV PLP inhibition in yeast | S. cerevisiae expressing SARS-CoV PLpro, growth rescue; control for the full effect not named in the record | Potency, µM (titrated, usually from 32.9 µM), without a hit: at the top dose activity, positive = growth rescue | 330,000 tested, 0.19% active; further: 0% is about no effect; nearly all actives have a fitted effect of over 55% in size; growth read by luminescence after 48 h
Cruzain noTriton: inhibitors of Trypanosoma cruzi cruzain without detergent; purified cruzain, Z-FR-AMC fluorescence, no detergent; 200,000 tested, 2.3% active; Potency, µM, for the others: max response, negative = inhibition, usual class: inhibitors; P25779; active means well fitted curve in the direction sought with a large enough effect; inconclusive means small, poorly fitted or top-dose-only effect, or another doubt; inactive means no such curve, though single readings can be large; an effect the other way counts as inactive or inconclusive;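 further: plate controls were enzyme without inhibitor for no effect and buffer without enzyme for full effect; nearly all actives have a fitted effect of over 40% in size; top concentration of the series not given in the record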
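Purified cruzain at 1.5 nM, pre-incubated 15 min with compound at room temperature in 100 mM sodium acetate pH 5.5, 5 mM DTT, 0.00005% Triton X-100. Reaction started with 2 uM Z-FR-AMC; AMC fluorescence increase over 60 s gives rate.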
* = called active by the depositor; u = inconclusive; x = not tested or not shown; & = joins results of further samples; [ ] = dose if it differs, or a comment. Unless noted, the call rests on the fitted dose curve; in most records, active means well fitted rising curve with a large enough effect; inconclusive means small, poorly fitted or top-dose-only effect; inactive means no such curve, though single readings can be large or run the other way. Potency means the concentration at half of the fitted maximal effect.

Values run as follows: RE007 growth inh	Lassa entry inh	NS1 function inh	2A StopGo	Cruzain Triton	MARV entry inh	SARS PLP yeast	Cruzain noTriton
- COc1ccc(NC(=O)c2ccc(NC(=O)COC(=O)c3cnc(C)cn3)cc2)cc1
→ -2%	6%	x	23%	x	14%[46.1 µM]	7%	x
- Cc1cc(NC(=O)C2CCC(CNS(=O)(=O)c3ccc(Br)s3)CC2)ccc1Br (stereo unspecified)
→ x	4%[46.1 µM]	x	0%	-1.9%	-27%[46.1 µM]	x	u
- C=CCN(CC=C)C(=S)NCCc1ccc(OC)c(OC)c1
→ -2%	-11%	2%	-25%	-1.8%	-7%	0%	3%
- O=C(NCc1ccccc1)C(c1ccc(Cl)cc1)N(C(=O)c1csnn1)C1CC1 (stereo unspecified)
→ -8%	12%[46.1 µM]	8%	18%	x	-6%[46.1 µM]	3%	x
- Cc1cc(=O)oc2cc(OCC(=O)OCC(=O)NC3CC3)ccc12
→ -10%	1%	x	-12%	x	u	3%	x
- O=C(Oc1c(Cl)cc(Cl)c2cccnc12)c1ccco1
→ u	u	-212%	u	-6.8%	u	-18%	3%
- Cc1cccc(Cn2cc(/C=C/[N+](=O)[O-])c3ccccc32)c1
→ 19%	u	-103%	u	-4.3%	u	-38%	-8%
- CCC(Oc1ccccc1OC)C(=O)Nc1ccc2c(c1)OCO2 (stereo unspecified)
→ 1%	1%	1%	21%	x	16%[46.1 µM]	-2%	x
- Cc1ccc(S(=O)(=O)NC(C(=O)OCC(=O)NC(=O)c2cccn2C)C(C)C)cc1 (stereo unspecified)
→ 19%	0%	-9%	-19%	-8.7%	-1%	4%	-17%
- Cc1cc(=O)oc2cc(NC(=O)C(CCCN=C(N)N)NC(=O)OCc3ccccc3)ccc12 (stereo unspecified)
→ 24%	x	-4%	-1%	x	x	1%	x
- Cn1nnnc1SCc1ccc(C(=O)Nc2nccs2)cc1
→ -3%	u	-1%	51%[activator]	1.4%	21%	-10%	-3%
- O=[N+]([O-])c1cc(-c2nc(-c3ccccc3)no2)ccc1NCCc1ccccc1
→ x	-6%[46.1 µM]	x	13%	-5.8%	0%[46.1 µM]	x	6%
- COc1ccc(-c2nn(-c3ccccc3)cc2/C=N/Nc2ccc3ccccc3n2)cc1OC
→ -11%	u	11%	u	-7.4%	u	-1%	u
- COc1ccc(CCNC(=O)COc2ccc(S(=O)(=O)N3CCOCC3)cc2)cc1OC
→ -3%	2%	-6%	x	3.5%	4%	3%	4%
- COC(=O)CCC(=O)Nc1cc(Cl)cc(Cl)c1
→ 3%	-6%	-8%	-6%	x	7%[46.1 µM]	-1%	x

Other structures follow:
Values run as follows: RE007 growth inh	Lassa entry inh	NS1 function inh	2A StopGo	Cruzain Triton	MARV entry inh	SARS PLP yeast	Cruzain noTriton
- Cc1cccc(C(=O)Oc2ccc(/C=N/O)cc2)c1
→ 4%	u	-16%	-7%	-8.7%	u	-10%	0%
- Cc1cc(F)ccc1S(=O)(=O)N1CCCOC1CNC(=O)C(=O)NCc1ccc2c(c1)OCO2 (stereo unspecified)
→ -6%	-15%	6%	-18%	x	u	-6%	x
- CCn1nnc(NC(=O)COc2ccc([N+](=O)[O-])cc2)n1
→ 6%	u	-3%	5%	x	2%[46.1 µM]	0%	x
- CCCCN(C(=O)CN1C(=O)C2CC=CCC2C1=O)c1c(N)n(CCC)c(=O)[nH]c1=O (stereo unspecified)
→ 4%[3.69 µM]	3%	-4%	12%	2.0%	20%	7%	-1%
- Cc1cc(C)n2nc(SCC(=O)c3ccc[nH]3)nc2n1
→ -10%	u	4%	25%	-6.5%	8%[46.1 µM]	4%	-10%
- O=C(CSc1nnc(-c2cccnc2)n1CCc1ccccc1)NCc1ccccc1
→ 7%	-13%	-2%	2%	2.2%	-5%	9%	-6%
- O=C(Nc1ccccc1C(=O)NCc1cccnc1)c1ccccc1F
→ 9%	x	5%	-4%	x	x	2%	x
- COc1ccc(C(=O)N/N=C/c2c(CO)cnc(C)c2O)cc1
→ 3%	-29%	x	10%	x	-24%	4%	x
- CCc1cc2c(=O)c(-c3cnn(-c4ccccc4)c3)c(C(F)(F)F)oc2c(CN(C)C)c1O
→ 2%	14%	3%	4%	0.2%	16%	3%	-13%
- O=[N+]([O-])c1ccc(-c2nc(=S)c3c(o2)CCCC3)cc1
→ -4%	15%	0%	-26%	-8.9%	u	-23%	-2%
- COc1ccccc1N1CCN(C(C)C(=O)Nc2ccc(S(=O)(=O)N3CCOCC3)cc2)CC1 (stereo unspecified)
→ 12%	-21%	x	0%	x	-16%[46.1 µM]	-2%	x
- O=C(O)c1cc(NC(=O)c2ccc(Br)cc2)cc(NC(=O)c2ccc(Br)cc2)c1
→ 2%	x	23%	11%	x	x	2%	x
- COc1ccc(NS(=O)(=O)c2ccc(OC)c(NC(=O)CCC3CCCC3)c2)cc1
→ -9%	-5%	u	-4%	-5.0%	u	-14%	0%
- CCOc1cccc2c1OC1(C)CC2NC(=O)N1c1cccc(F)c1 (stereo unspecified)
→ 18%	-2%	7%	0%	1.7%	0%	-1%	4%
- N#C/C(=C\c1ccccc1[N+](=O)[O-])C(=O)Nc1ccc(S(N)(=O)=O)cc1
→ 0%	x	-77%	-22%	x	x	0%	x

Part of the list above in order of number of heavy atoms, low to high:
Values run as follows: RE007 growth inh	Lassa entry inh	NS1 function inh	2A StopGo	Cruzain Triton	MARV entry inh	SARS PLP yeast	Cruzain noTriton
- Cc1cccc(C(=O)Oc2ccc(/C=N/O)cc2)c1
→ 4%	u	-16%	-7%	-8.7%	u	-10%	0%
- CCCCN(C(=O)CN1C(=O)C2CC=CCC2C1=O)c1c(N)n(CCC)c(=O)[nH]c1=O (stereo unspecified)
→ 4%[3.69 µM]	3%	-4%	12%	2.0%	20%	7%	-1%
- Cc1cc(F)ccc1S(=O)(=O)N1CCCOC1CNC(=O)C(=O)NCc1ccc2c(c1)OCO2 (stereo unspecified)
→ -6%	-15%	6%	-18%	x	u	-6%	x

Other results:
Values run as follows: RE007 growth inh	Lassa entry inh	NS1 function inh	2A StopGo	Cruzain Triton	MARV entry inh	SARS PLP yeast	Cruzain noTriton
- CC(C)Cn1c(-c2ccccc2F)n[nH]c1=S
→ 6%	5%	-2%	-6%	-0.7%	11%	3%	-15%
- CCc1nc2sc3c(c2c(=O)n1N)CC(C)(C)OC3
→ -8%	9%	11%	-7%	1.6%	22%	1%	5%
- Cc1cccc(NC(=O)CCc2c(C)nc3ncnn3c2C)n1
→ -10%	2%	-11%	7%	0.1%	-6%	4%	4%
- CC(Oc1cc2oc(=O)c3c(c2cc1Cl)CCCC3)C(=O)NCc1ccccn1 (stereo unspecified)
→ 1%	u	-23%	-9%	x	-18%[46.1 µM]	-7%	x
- CC1CCc2nc(NC(=O)c3ccc(S(=O)(=O)N4CCCc5ccccc54)cc3)sc2C1 (stereo unspecified)
→ 0%	-19%	0%	u	-4.6%	u	2%	7.9µM*
- CC(C)CC1NC(=O)N(CC(=O)c2ccc3c(c2)OCCO3)C1=O (stereo unspecified)
→ 3%	0%	-4%	33%[activator]	3.4%	20%	0%	-9%
- CCN=c1scc(C)n1/N=C/c1cc(Br)c(O)c(OC)c1
→ -17%	u	x	25%	x	u	-1%	x
- CCn1c(C)c(C)c2cc(C(=O)NCCN3CCOCC3)ccc21
→ -2%	x	25%	-15%	x	x	12%	x
- O=c1c([N+](=O)[O-])c(N2CCCCCC2)c2ccccc2n1-c1ccccc1
→ 25%	-2%	15%	-18%	-4.0%	0%	-4%	u
- Cc1cccc(-c2nc3c4ccccc4nc(N4CCN(c5ccccc5F)CC4)n3n2)c1
→ x	x	x	23%	-0.2%	27%[46.1 µM]	x	4%
- O=S1(=O)CCN(Cc2csc(-c3cccs3)n2)CC1
→ -12%	u	-5%	0%	x	-9%[46.1 µM]	1%	x
- CN(Cc1cnn(C)c1)Cc1nc(C(c2ccccc2)c2ccccc2)no1
→ 3%	x	-5%	-21%	x	x	-3%	x
- CN(C)C(=O)c1ccccc1Sc1cc(Cl)ccc1Cl
→ 17%	-3%	-4%	u	0.1%	u	-11%	2%
- O=C(CCNC(=O)N1CCn2c1nc1ccccc12)NCc1ccc(F)cc1
→ 8%	x	-2%	-17%	x	x	3%	x
- CCc1ccc(NC(=O)C(C)OC(=O)C2CCN(c3ccc(C(F)(F)F)cn3)CC2)cc1 (stereo unspecified)
→ -7%	u	x	-16%	x	-27%	-5%	x

Whole records as entered above. Order of screens: RE007 growth inh, Lassa entry inh, NS1 function inh, 2A StopGo, Cruzain Triton, MARV entry inh, SARS PLP yeast, Cruzain noTriton
`O=C(Nc1ccccc1C(=O)NCc1cccnc1)c1ccccc1F` is listed as 9%, x, 5%, -4%, x, x, 2%, x
`N#C/C(=C\c1ccccc1[N+](=O)[O-])C(=O)Nc1ccc(S(N)(=O)=O)cc1` is listed as 0%, x, -77%, -22%, x, x, 0%, x
`O=C(CCNC(=O)N1CCn2c1nc1ccccc12)NCc1ccc(F)cc1` is listed as 8%, x, -2%, -17%, x, x, 3%, x

Other records follow:
Values run as follows: RE007 growth inh	Lassa entry inh	NS1 function inh	2A StopGo	Cruzain Triton	MARV entry inh	SARS PLP yeast	Cruzain noTriton
- OC(CNCc1ccccc1Cl)C(F)(F)F (stereo unspecified)
→ 4%	0%	-1%	-4%	x	5%	1%	x
- COc1cccc(CNS(=O)(=O)c2c(C)nc3scc(C)n3c2=O)c1
→ -2%	29%[46.1 µM]	9%	-4%&-9%	0.5%	8%&8%[46.1 µM]	-3%	-8%
- O=C1CC(c2cccc(F)c2)c2c(c3ccccc3[nH]c2=O)O1 (stereo unspecified)
→ 2%	-1%	x	-14%	x	21%[46.1 µM]	-2%	x
- O=C(CN1CCN(c2ccc(F)cc2)CC1)N1N=CCC1c1ccccc1 (stereo unspecified)
→ -7%	1%	-6%	x	7.6%	-9%	2%	6%
- CCOC(Cn1c(CCCO)nc2ccccc21)OCC
→ 1%	u	10%	29%	3.9%	14%	5%	9%
- O=S(=O)(N/N=C/c1ccc2c(c1)OCCO2)c1ccccc1
→ 1%	15%[14.3 µM]	u	10%	-5.3%	-3%	2%	1%
